LANA-H2B inh: blocks KSHV LANA binding to histone H2A/H2B; inhibition, % (concentration not given with the values); AID 2629; 320,000 tested, 0.6% active; cell-free LANA-H2A/H2B peptide, fluorescence polarization; Q9QR71; in the data active means inhibition mostly above about 10%, no sharp cut-off; inactive means mostly below about 6.7%;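 further: stock transfer was 7.5 nL into about 10 µL; 0% = median of vehicle wells and 100% = median of positive control wells; one replicate is shown; the record names a cut of 25% in any replicate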
ALR H2O2 inh: blocks human ALR sulfhydryl oxidase activity. AID 485317. inhibition, % (test concentration not listed). P55789. 290,000 tested, 3.8% active. purified ALR, DTT oxidation, H2O2 HRP-luminol luminescence;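 active means mean and each replicate at 75% or more; inconclusive means only one of the two met; inactive means neither met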;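 further: stock transfer was 7.5 nL into about 7.5 µL; 0% = neutral wells and 100% = wells with inactivated enzyme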
Target sequence (P55789 whole entry, looked up): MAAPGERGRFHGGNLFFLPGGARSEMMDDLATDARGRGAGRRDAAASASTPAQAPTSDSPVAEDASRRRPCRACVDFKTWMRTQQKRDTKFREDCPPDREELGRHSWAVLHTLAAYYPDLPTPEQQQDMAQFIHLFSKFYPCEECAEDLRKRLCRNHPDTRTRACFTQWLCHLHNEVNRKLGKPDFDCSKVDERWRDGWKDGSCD
B2AR ag: human beta-2 adrenergic receptor agonism by FAP | P07550 | Am2.2-beta2AR cells, FAP receptor internalization, flow cytometry; reference of the scale not given here | response, % (no concentration beside the values) | AID 504454 | 340,000 tested, 0.43% active;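 active means response above a set limit, near 3 SD of response in nonfluorescent compounds, cut at about 42% in these data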;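 further: stock transfer was 100 nL into about 11 µL; a reference agonist was the positive control; negative values mostly stem from fluorescent compounds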
Target sequence (P07550 whole entry, looked up): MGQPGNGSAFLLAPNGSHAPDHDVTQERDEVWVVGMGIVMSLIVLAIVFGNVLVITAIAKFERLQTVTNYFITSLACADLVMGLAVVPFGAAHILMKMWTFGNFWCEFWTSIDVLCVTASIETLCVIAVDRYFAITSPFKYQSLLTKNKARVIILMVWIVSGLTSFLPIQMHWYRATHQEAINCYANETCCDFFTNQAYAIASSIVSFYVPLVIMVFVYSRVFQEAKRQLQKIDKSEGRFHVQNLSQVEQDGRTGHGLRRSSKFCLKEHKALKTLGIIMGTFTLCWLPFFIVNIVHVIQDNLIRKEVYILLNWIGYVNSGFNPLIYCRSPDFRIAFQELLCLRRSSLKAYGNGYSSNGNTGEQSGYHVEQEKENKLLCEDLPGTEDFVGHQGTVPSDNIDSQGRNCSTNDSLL
Bfl-1 A1 inh: inhibitors of the anti-apoptotic protein A1, read as caspase activation; MEF A1-2A-BIM cells, Caspase-Glo 3/7 luminescence, 3 h; percent of clofoctol response, vehicle zero; caspase activation, % (concentration not given with the values); 330,000 tested, 0.066% active; AID 2462;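 active means over half of replicate activation scores above 10%, or exactly half above 10 with the replicate mean above 10; inconclusive means replicate mean below 10 yet half the replicates above 10; inactive means over half of replicates below 10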;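 further: wells of about 30 µL received 50 nL stock; many hits fall short of the cut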
Beta cell apopt: blocks beta cell apoptosis; INS-1E cytokine-induced death, ATP luminescence, 48 h; percent of positive-control rescue, neutral wells zero; protection from apoptosis, % (no concentration beside the values); 300,000 tested, 0.8% active;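 active means all replicates at 75% or more, or half of them and the mean; inconclusive means half reach 75% but not the mean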;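 further: 0% = cytokine-treated negative control wells and 100% = positive control rescue; higher means more ATP so stronger rescue from cytokine killing; wells of about 40 µL received 100 nL stock; the first replicate is given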
Calb FLC: C. albicans growth modulation with fluconazole | C. albicans CaCi-2 (fluconazole-resistant clinical isolate) + fluconazole, Alamar Blue growth, 48 h | growth inhibition, % (test concentration not listed) | 300,000 tested, 0.57% active;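 active means most replicates above 75%; inconclusive means exactly half above 75%; inactive means most below 75%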;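 further: all wells also contain fluconazole at 8 µg/ml as a sub-toxic cotreatment; 0% = median of DMSO wells and 100% = median of geldanamycin control wells; wells of about 8 µL received 7.5 nL stock; the first replicate is given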
T cruzi inh: blocks replication of Trypanosoma cruzi; T. cruzi beta-gal in NIH3T3, luminescence, 90 h; inhibition, % (no concentration beside the values); 300,000 tested, 1.4% active;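 active means mean inhibition across valid replicates above about 55%, limit read from the data; inconclusive means mean below that limit but half or more replicates reach it; inactive means mean below it, under half of replicates reach it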;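 further: signal also drops with host cell toxicity which is not excluded here; 0% = plate median of DMSO wells and 100% = zero luminescence signal; higher percent means less beta-gal luminescence so fewer parasites; stock transfer was 50 nL into about 50 µL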
Ecoli rRNA inh: selective bacterial rRNA inhibition in E. coli; E. coli WT GFP vs humanized-ribosome RFP mutants, fluorescence, 24 h; stronger effect = lower value; DMSO median 0, no signal -100; GFP signal change (wild-type ribosome), % (test concentration not listed); 350,000 tested, 1.6% active; AID 720706;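 active means significant combined selectivity score with lowered wild-type GFP, culture density cut under 30%, mutant RFP and density less affected; inactive means any of these conditions unmet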; further: one replicate is shown; some compounds called inactive have numbers as strong as hits
Ecoli rRNA inh OD600: second read-out of Ecoli rRNA inh, no call of its own (marks repeat the call); OD600 change, %; measured here: OD600 growth;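 optical density of the mix in the first replicate; 0 = DMSO median and -100 = no signal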
Ecoli rRNA inh RFP: also measured in Ecoli rRNA inh; calls as there; RFP signal change, %; measured here: RFP humanized mutant strains;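 first replicate; 0 = DMSO median and -100 = no signal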
* marks the source's active call; other numbers are inactive results; ? = inconclusive; / = no result given; & = joins results of further samples. This is a subset (hit frequency here may not be typical).

Results follow in this order: LANA-H2B inh	ALR H2O2 inh	B2AR ag	Bfl-1 A1 inh	Beta cell apopt	Calb FLC	T cruzi inh	Ecoli rRNA inh	Ecoli rRNA inh OD600	Ecoli rRNA inh RFP
(1) CCN(CC)CCN(C(=O)c1cc2ccccc2cc1OC)c1nc2ccc(OC)cc2s1
→ -1.2	-4	4	0.3	6	80*	37	-35	-53	-0.7
(2) CCOC(=O)c1sc(NC(=O)CSc2nccn2C)nc1C
→ -0.8	98*	-7	-0.4	-5	-2	-6	2	13	0.4
(3) C/C=C(/C)C(=O)OC1c2c(ccc3ccc(=O)oc23)OC(C)(C)C1OC(C)=O (stereo unspecified)
→ -6.4	1	3	0.6	0	1	4	/	/	/
(4) NC(=O)CSc1nnc(NC(=O)c2ccc3ccccc3c2)s1
→ -0.2	-2	3	-2.4	-2	27	-23	10	11	-2.3
(5) Cc1nnc(SCC(=O)N2CCN(c3ccccc3)CC2)n1-c1ccccc1
→ -2.7	46	-2	0.5	0	-1	-1	/	/	/
(6) COC(=O)c1ccc(NC(=S)NCCc2ccc(OC)cc2)cc1
→ 7.1	/	8	1.2	1	30	/	8	8	0.6
(7) Cc1ccc(NS(=O)(=O)c2ccc(C(=O)OCC(=O)NCC3CCCO3)cc2)cc1 (stereo unspecified)
→ 0.2	-1	4	-0.9	/	-5	-13	-8	-16	-0.9
(8) COc1ccc(C(=O)NC(=S)Nc2ccccc2[N+](=O)[O-])cc1OC
→ -2.6	-35	-10	0.1	-5	-5	-4	0	9	7.7
(9) Cc1cc(=O)[nH]c2nnc(SCC(=O)N3CC(C)OC(C)C3)n12 (stereo unspecified)
→ -1.6	0	-8	-0.5	-6	-1	-13	4	8	-2.2
(10) COc1cccc(NC(=O)COc2ccccc2)c1
→ -15	-6	-4	-4.9	/	1	-1	-1	-2	-3.7
(11) COc1ccccc1N1CC(C)C(=O)NC1=S (stereo unspecified)
→ -2.6	37	10	-0.9	-5	36	-17	2	8	-2.8
(12) CC(=O)Nc1ccc(S(=O)(=O)N(CCc2ccccc2)CC(=O)N/N=C/c2ccc(C(=O)O)cc2)cc1
→ 0.6	0	2	1.0	-4	3	1	-17	-16	-14
(13) Cc1cccc2cc(CN(CC3CCCO3)C(=O)c3cccnc3)c3nnnn3c12 (stereo unspecified)
→ -0.3	/	-2	-0.1	2	24	15	/	/	/
(14) CCC(=O)N1CCN(c2ccc(NC(=S)NC(=O)c3cc4ccccc4o3)cc2)CC1
→ 94*	12	2	0.8	14	-10	-22	2	3	-0.1
(15) O=C(NNS(=O)(=O)c1ccccc1)c1ccc(F)cc1
→ 18	21	0	0.5	-1	-6	-6	-13	-8	-2.8
(16) CS(=O)(=O)Nc1ccc(C(=O)Nc2ccccc2-c2ccccc2)cc1
→ -0.2	14	4	0.2	-6	3	-11	-9	-8	-3.4
(17) CN(CC(=O)Nc1ccc(Cl)c(Cl)c1)C(=O)C1CCCC1
→ -0.7	-1	-3	0.9	3	/	/	-1	-21	5.9
(18) CC1Sc2ccc(S(=O)(=O)NCCc3ccc(S(N)(=O)=O)cc3)cc2NC1=O (stereo unspecified)
→ -0.1	1	-6	-0.7	-4	6	-12	-4	-4	-1.0
(19) CC(=O)Nc1ccc(-c2csc(NC(=O)C3CCN(S(=O)(=O)c4cccs4)CC3)n2)cc1
→ 2.5	2	19	0.0	45	-2	4	/	/	/
(20) CCCCCCCCn1c(=O)c(C(=O)OCC)c(O)c2ccccc21
→ 4.0	40	-6	0.5	-1	3	3	/	/	/
(21) COc1cc(CC(=O)Nc2cccc(C(F)(F)F)c2)cc(OC)c1OC
→ -2.2	-2	0	0.6	/	12	-28	-15	-11	-2.6
(22) COc1ccc(/C=C(\NC(=O)c2ccc([N+](=O)[O-])cc2)C(=O)NCCN2CCOCC2)cc1
→ -2.9	-11	4	-0.6	/	-5	-6	20	13	-0.6
(23) Cc1c(NC(=O)C2(c3ccccc3)CCCC2)c(=O)n(-c2ccccc2)n1C
→ -4.7	-7	-9	0.3	0	7	-6	/	/	/
(24) CN(Cc1ccccc1)C(=O)c1ccccc1C(=O)OCC(=O)N(Cc1ccccc1)C(C)(C)C
→ -3.0	/	7	2.1	4	/	/	-24	-55	13
(25) COc1cc(S(=O)(=O)Nc2cccc(C(=O)O)c2)c(OC)cc1Cl
→ -4.3	-14	-2	1.2	-8	5	-3	/	/	/
(26) Cn1cnc2cc(NCc3cccs3)ccc21
→ 2.9	66	4	-0.3	2	15	-36	0	1	-1.2
(27) COc1ccc2c(c1)c(CC(=O)Nc1cccc(S(N)(=O)=O)c1)c(C)n2C(=O)c1ccc(Cl)cc1
→ -1.6	4	4	0.1	7	10	-12	-14	-4	12
(28) C[C@H](CO)N1C[C@H](C)[C@@H](CN(C)S(=O)(=O)c2cccs2)Oc2c(NC(=O)NC3CCCCC3)cccc2C1=O
→ -3.3	-6	-3	0.3	-5	/	/	-4&-2	-5&15	-0.8&-4.2
(29) COc1cc(Br)c(CN2CCCN(C)CC2)cc1OC
→ 5.9	-6	1	0.6	-5	-11	17	17	12	4.9
(30) NC1=NC(c2ccc(F)cc2)n2c(nc3ccccc32)N1 (stereo unspecified)
→ 3.3	-2	9	0.3	0	-10	-2	/	/	/
(31) CC(C)(C)NS(=O)(=O)c1ccc(NC(=O)CS(=O)(=O)Cc2ccccc2)cc1
→ 4.5	-3	4	0.7	-2	4	5	-2	-10	0.3
(32) COc1ccc(C2CC(=O)C3=C(C2)Nc2ncnn2C3c2ccccc2C)c(OC)c1 (stereo unspecified)
→ 3.3	-3	-1	-0.6	-11	6	61*	/	/	/
(33) CCN(c1ccccc1)S(=O)(=O)c1ccc(Cl)c(NC(=O)Nc2ccc(Cl)cc2C#N)c1
→ 3.2	/	-2	-0.1	10	8	12	-6	-22	23
(34) Cc1ccc(-c2csc3ncnc(SCC(=O)O)c23)cc1
→ 6.1	-1	5	-0.5	-2	-3	0	-1	-3	0.3
(35) Nn1c(C2CCC2)nc2ccccc2c1=O
→ -0.8	-4	-7	0.8	-3	20	-3	-3	14	0.3
(36) O=C(Cn1c(=O)oc2cc(S(=O)(=O)N3CCCC3)ccc21)NC1CCCc2ccccc21 (stereo unspecified)
→ -1.8	1	-1	-0.3	6	1	-6	9	14	2.6
(37) COc1ccccc1NC(=O)/C(=C\c1cccnc1)NC(=O)c1ccc(C)cc1
→ 7.9	/	-2	0.5	-6	-1	-19	-2	-5	0.2
(38) CCCc1ccc(-c2cc(C(=O)N/N=C/c3ccc([N+](=O)[O-])o3)c3ccccc3n2)cc1
→ -1.8	0	2	-0.7	12	2	61*	/	/	/
(39) Cc1nc2nc(SCC(=O)NCCN3CCOCC3)nn2c(C)c1Cc1ccccc1
→ -0.3	-15	-6	0.3	-5	-8	13	/	/	/
(40) CCC(C)NC(=O)c1ccccc1NC(=O)/C(=C/c1ccc(OC)cc1)c1ccccc1 (stereo unspecified)
→ 1.1	-11	-7	-0.6	-3	20	37	/	/	/
(41) Cc1cc(C)nc(SCC(=O)Nc2ccc(Br)cn2)n1
→ -2.5	-1	-5	-0.3	2	3	9	/	/	/
(42) Cc1ccc(C#N)c(SCCN2CCCCC2)n1
→ 2.3	-31	-5	0.1	-6	-13	6	1	16	-4.6
(43) O=C1ON=C(c2ccccc2)/C1=C/c1ccco1
→ 2.1	57	58*	0.8	1	9	-2	14	-4	8.2
(44) CCn1c(=O)n(CC)c2cc(NC(=O)c3ccccc3Cl)ccc21
→ 1.9	0	-1	1.1	1	6	16	-18	-16	-4.4
(45) COc1ccccc1N1CCN(C2CC(=O)N(c3ccccc3)C2=O)CC1 (stereo unspecified)
→ -3.1	50	3	0.3	3	2	-6	-1	-10	0.4
(46) Cc1cc(Oc2ccc(-c3ccccc3)cc2)nc(N2CCOCC2)n1
→ -4.5	-3	-9	0.0	1	3	22	/	/	/
(47) O=C(O)CCCCCCCCCC(=O)c1cccs1
→ -0.5	-4	6	-0.6	5	44	-4	/	/	/
(48) CSc1cccc(CN2CCC(CO)(Cc3ccccc3)CC2)c1
→ 3.0	-2	-14	-0.6	-5	-8	45	9	9	-1.0
(49) COc1ccc(OC)c(NC(=O)C2CCCN(S(=O)(=O)c3cccc4nonc34)C2)c1 (stereo unspecified)
→ -0.1	-7	7	0.8	-4	-5	14	15	10	-1.7
(50) Cc1cc2ccccc2n1CCNC(=O)Cc1ccccc1
→ -2.5	-8	5	-0.4	7	1	14	5	6	39
(51) Cc1ccnc(NC(c2ccsc2)c2ccc3ccc(C)nc3c2O)c1 (stereo unspecified)
→ 1.0	-5	-3	0.1	-49	-6	63*	0	0	2.8
(52) CCn1c(SCC(=O)NC2CC2)nnc1-c1ccc(F)cc1
→ -0.1	-13	-4	0.5	/	-3	-3	12	9	0.3
(53) Cc1ccc(C(=O)NN(CCC(=O)NC(C)(C)C)C2=NS(=O)(=O)c3ccccc32)cc1
→ -2.7	-2	0	-0.4	-3	-3	-16	/	/	/
(54) CC12C=CC3(O1)C(C(=O)N1CCCOC13)C2C(=O)O (stereo unspecified)
→ -1.5	-3	3	0.8	3	-6	-21	19	15	3.2
(55) CCCOC(=O)Cn1cnc2scc(-c3ccc(C)cc3)c2c1=O
→ -0.2	-1	-7	0.0	-3	-54	-5	0	4	2.2
(56) O=C(CCS(=O)(=O)c1ccccc1)Nc1ccccc1F
→ 0.9	/	-1	-0.2	-1	1	1	-2	3	1.1
(57) Cc1ccnc(NC(=O)c2ccccc2NC(=O)c2ccc(Cl)cc2Cl)c1
→ -2.2	-4	-2	-0.5	/	17	-22	2	17	3.1
(58) CC(C)c1ccc(NC(=S)NNC(=O)c2cccs2)cc1
→ -3.8	26	1	3.7	1	?	7	-35	-56	3.6
(59) Fc1ccccc1COc1ccc(-c2nnn(Cc3ccccc3F)n2)cc1
→ 1.8	-7	-9	-0.2	12	7	5	6	11	4.7

Assay outcomes from PubChem BioAssay.
